High-throughput results from PubChem.
StopGo reporter – High Throughput Screening for Foot and Mouth Disease Virus Antivirals. human cells with a luciferase reporter of 2A StopGo recoding; control for the full effect not named in the record. AID 1159524, 2015. 410,000 tested, 1.2% active. Potency, µM (doses to about 57.9 µM), without a hit: at the highest dose signal change, negative = less light; active = well fitted falling curve with a large enough effect; inconclusive = small, poorly fitted or top-dose-only effect; inactive = no such curve, though single readings can be large or run the other way; tested in HEK293T cells; also: % is scaled to controls: 0 for no effect and ±100 for the full control effect; nearly all actives have a fitted effect of over 45% in size; luciferase light after 4 h
Cruzain Triton – qHTS Assay for Promiscuous and Specific Inhibitors of Cruzain (with detergent) | Cruzipain (Trypanosoma cruzi), P25779 | purified cruzain, Z-FR-AMC fluorescence, 0.01% Triton | Potency, µM, inactives show max response, negative = inhibition, usual class: inhibitors | 200,000 tested, 0.43% active;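 also: plate controls were neutral wells for no effect and buffer without enzyme for full effect; nearly all actives have a fitted effect of over 40% in size; top concentration of the series not given in the record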
Target sequence (P25779 123-467 limits assumed): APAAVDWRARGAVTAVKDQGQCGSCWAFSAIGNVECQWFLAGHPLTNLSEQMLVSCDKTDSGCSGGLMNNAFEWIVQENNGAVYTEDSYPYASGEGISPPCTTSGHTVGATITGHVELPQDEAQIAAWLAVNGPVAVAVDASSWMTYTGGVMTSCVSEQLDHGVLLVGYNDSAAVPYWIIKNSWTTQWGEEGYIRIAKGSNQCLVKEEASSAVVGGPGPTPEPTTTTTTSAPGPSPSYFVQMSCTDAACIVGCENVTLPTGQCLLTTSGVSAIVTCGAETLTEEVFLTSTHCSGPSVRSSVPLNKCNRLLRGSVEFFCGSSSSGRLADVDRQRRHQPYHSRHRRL
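Enzyme 1.5 nM, Z-FR-AMC 2 uM, NaOAc 100 mM pH 5.5, DTT 5 mM, Triton X-100 0.01%; 15 min RT compound preincubation; kinetic ex360/em450, 60 s delta.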
MARV entry inh – qHTS for inhibitors of binding or entry into cells for Marburg Virus | Marburg virus pseudotyped entry inhibition, cell reporter; control for the full effect not named in the record; about a third of the inactives were read at about 46 µM | Potency, µM (top dose mostly 37.8 µM), for inactives: top-dose activity change, negative = inhibition, actives largely listed as inhibitors | 300,000 tested, 1.8% active | AID 540276, 2011; active = well fitted inhibition curve with a large enough effect; inconclusive = small, poorly fitted or top-dose-only effect, or effect the other way; inactive = flat fitted curve, though single readings scatter; tested in HEK293 cells; about a fifth of its hits are not listed in these tables; also: % is scaled to controls: 0 for no effect and ±100 for the full control effect; luciferase read-out
SARS PLpro yeast – qHTS of Yeast-based Assay for SARS-CoV PLP | S. cerevisiae expressing SARS-CoV PLpro, growth rescue; control for the full effect not named in the record | Potency, µM (series often up to 32.9 µM), without a hit: at the highest dose activity, positive = growth rescue | 330,000 tested, 0.19% active | AID 485353, 2010; active means well fitted rising curve with a large enough effect; inconclusive means small, poorly fitted or top-dose-only effect; inactive means no such curve, though single readings can be large or run the other way; also: 0% is about no effect; nearly all actives have a fitted effect of over 55% in size; growth read by luminescence after 48 h
LASV entry inh – qHTS for Inhibitors of binding or entry into cells for Lassa Virus. 300,000 tested, 1.2% active. Potency, µM (titrated, usually from 37.9 µM), without a hit: top-dose activity change, negative = inhibition, hits mostly inhibitors. AID 540256, 2011. Lassa virus pseudotype entry inhibition, cell reporter; control for the full effect not named in the record; active means well fitted inhibition curve with a large enough effect; inconclusive means small, poorly fitted or top-dose-only effect, or effect the other way; inactive means flat fitted curve, though single readings scatter; tested in HEK293 cells; also: % is scaled to controls: 0 for no effect and ±100 for the full control effect; nearly all actives have a fitted effect of over 50% in size; luciferase read-out
NS1 function inh – qHTS Assay for Inhibitors of Influenza NS1 Protein Function. S. cerevisiae slowed by influenza A NS1, growth recovery by OD600. AID 2326, 2010. Potency, µM (top dose mostly 46.1 µM), inactives show at the top dose activity, positive = more growth. 270,000 tested, 0.4% active; active means well fitted rising curve with a large enough effect; inconclusive means small, poorly fitted or top-dose-only effect; inactive means no such curve, though single readings can be large or run the other way; also: nearly all actives have a fitted effect of over 50% in size
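Read-out: OD600 growth recovery of NS1-expressing budding yeast. Cells grown overnight at 30C in -URA glucose medium, washed, resuspended and diluted 1:100 in 2% galactose assay medium, pH 6.0. Same strain lacking NS1 served as positive control.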
RE007 growth inh – qHTS Assay for Inhibitors of the HIV-1 protein Vpr. S. pombe RE007 Vpr strain, BacTiter-Glo ATP luminescence, 24 h; control for the full effect not named in the record. Potency, µM (top dose mostly 92.2 µM), without a hit: at the top dose activity change, negative = less growth. 360,000 tested, 0.21% active; active = well fitted falling curve with a large enough effect; inconclusive = small, poorly fitted or top-dose-only effect; inactive = no such curve, though single readings can be large or run the other way;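 also: % is scaled to controls: 0 for no effect and ±100 for the full control effect; nearly all actives have a fitted effect of over 50% in size; the assay follows cell death caused by Vpr and the record does not say whether a fall means rescue or toxicity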
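Fission yeast RE007 carrying one integrated HIV-1 vpr copy, seeded at OD 0.01 in PMG+AL medium with 23 nL pinned compound. Grown 24 h at 30 degrees; viability read by BacTiter-Glo luminescence after 5 min.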
Cruzain inh noDet – qHTS Assay for Promiscuous and Specific Inhibitors of Cruzain (without detergent); purified cruzain, Z-FR-AMC fluorescence, no detergent; Potency, µM, without a hit: max response, negative = inhibition, actives largely listed as inhibitors; 200,000 tested, 2.3% active; Cruzipain (Trypanosoma cruzi), P25779;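 also: plate controls were enzyme without inhibitor for no effect and buffer without enzyme for full effect; nearly all actives have a fitted effect of over 40% in size; top concentration of the series not given in the record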
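Purified cruzain at 1.5 nM, pre-incubated 15 min with compound at room temperature in 100 mM sodium acetate pH 5.5, 5 mM DTT, 0.00005% Triton X-100. Reaction started with 2 uM Z-FR-AMC; AMC fluorescence increase over 60 s gives rate.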
An asterisk follows results filed as active; ? = inconclusive; · = not tested or not shown; & = joins results of further samples; [ ] = dose if it differs, or a comment. Unless noted, calls follow the shape of the dose curve; as a rule, active = well fitted curve in the direction sought with a large enough effect; inconclusive = small, poorly fitted or top-dose-only effect, or another doubt; inactive = no such curve, though single readings can be large; an effect the other way counts as inactive or inconclusive. Potency is read from the fitted curve at half-maximal effect.

SMILES	StopGo reporter	Cruzain Triton	MARV entry inh	SARS PLpro yeast	LASV entry inh	NS1 function inh	RE007 growth inh	Cruzain inh noDet
O=C(Nc1ccc(Oc2ccccc2)cc1)c1ccc(F)c(S(=O)(=O)N2CCN(c3cccc(Cl)c3)CC2)c1	?	0.6%	·	·	?	·	·	4µM*
CCC1CN(C(=O)N2CCC(C(=O)NCCc3ccc(C)cc3)CC2)c2ccccc2O1 (centres undefined)	?	-0.4%	·	·	4%[46.1 µM]	·	·	-8%
Cc1c(C(=O)NC2CCCc3ccccc32)oc2ccccc12 (centres undefined)	9%	-8.0%	?	-12%	-20%	-9%	7%	-6%
COc1ccc2[nH]c(C(=O)N/N=C/c3ccc(O)cc3O)cc2c1	16%	·	·	?	·	0%	8%	·
Cc1ccc(Cn2nnc3c(=O)[nH]c(C4CCN(S(=O)(=O)c5cc(C)ccc5C)CC4)nc32)cc1	?	2.6%	?	7%	14µM*	?	10%	27%
CC(C)(C)NC(=O)C(c1ccco1)N(C(=O)Cn1nnc(-c2ccc(F)cc2)n1)c1ccccc1 (centres undefined)	-20%	·	3%	·	6%	-28%	-7%	·
NC12CCc3c(no[n+]3[O-])C1(O)CC(c1ccccc1)=[N+]2[O-] (centres undefined)	·	6.7%	3%	5%	0%	-1%	-8%	0%
Cc1ccc(S(=O)(=O)N2CCN(C(=O)c3ccccc3Cc3ccccc3)CC2)c(C)c1	?	·	?	-11%	?	?	0%	·
COc1ccc(-c2ccc(C)cc2)cc1[C@H]1[C@@H]2C=CCC[C@@]2(C)C(=O)N1Cc1ccccc1	24%	·	·	-2%	·	2%	9%	·
O=C(NCCc1ccccc1)c1cc(-c2cccc(Cl)c2)on1	-8%	-1.7%	0%[46.1 µM]	·	-9%[46.1 µM]	·	·	-4%
NC(=S)c1cnn2c(-c3cccc(C(F)(F)F)c3)ccnc12	-22%	·	·	-3%	·	2%	15%	·
Cc1cc(NC(=O)CCC(=O)N(Cc2ccc(F)cc2)C(C(=O)NC2CCCC2)c2ccco2)no1 (centres undefined)	0%	·	-23%[46.1 µM]	-3%	-9%	3%	?	·
CCN(CC)c1nc2ccccc2nc1-n1nc(C)cc1C	-16%	-3.5%	-1%	13%	18%	-12%	0%	4%
Cc1nc(-c2ccc(F)cc2)c(CC(=O)N(C)CC(=O)Nc2c(C)cccc2C)s1	-10%	·	-1%	0%	-5%	·	-18%	·
Cc1ccccc1C(=O)NC(=S)N(C)C1CCCCC1	-17%	·	-6%[46.1 µM]	1%	0%[46.1 µM]	-3%	7%	·
Cc1ccc(C(=O)CCC(=O)N2CCC(C(N)=O)CC2)cc1	6%	·	4%[46.1 µM]	-4%	?	·	-7%	·
Cc1ccccc1OCc1nnc(SCC(=O)Nc2c(C)n(C)n(-c3ccccc3)c2=O)n1-c1ccccc1	?	-1.1%	-15%[46.1 µM]	-10%	3%	7%	10%	23%
COc1ccccc1C(=O)NCc1ccccc1	61%[activator]	1.3%	11%	16%	1%	1%	2%	-1%
Cc1cc(CSc2ccccc2)ccc1NC(=O)c1cccc([N+](=O)[O-])c1	7%	3.7%	2%	0%	-14%	11%	3%	8%
c1cnc2c(c1)ncn2C1CCNCC1	-1%	1.0%	·	·	10%[46.1 µM]	·	·	18%
O=C1C(Cl)=C(NCC2CCCO2)C(=O)N1Cc1ccccc1 (centres undefined)	-4%	-1.7%	?	1%	-20%	-10%	5%	3%
CC1=CC(=C(C#N)C#N)C=C(C)N1CCN1CCN(C(=O)Nc2cccc(Cl)c2)CC1	-6%	-2.6%	9%	13%	6%	3%	-9%	11%
CC(ON1CC1(C(F)(F)F)C(F)(F)F)(C(N)=O)C(N)=O (centres undefined)	1%	1.0%	?	4%	-18%	12%	·	20%
COc1ccccc1-n1c(SCC(=O)Nc2cccc(C)c2)nc2c(c1=O)SCC2	-19%	-1.8%	·	5%	·	13%	12%	-19%
Clc1cccc(CSc2nnc(C3CCNCC3)o2)c1	17%	-1.0%	-26%[46.1 µM]	·	19%[46.1 µM]	·	·	-11%
Cc1ccc(S(=O)(=O)N2CCC(C(=O)N3CCCC(C(F)(F)F)C3)CC2)cc1C (centres undefined)	-27%	·	-14%	2%	-13%	·	4%	·
CCn1c(SCC(=O)N/N=C/c2cccs2)nc2ccccc21	-6%	-0.2%	12%	-13%	0%	-29%	14%	7%
CCc1ccc(NC(=O)C(=O)NCCN2CCN(S(C)(=O)=O)CC2)cc1	-10%	·	·	1%	·	1%	10%	·
O=C(Cc1cccs1)N1CCCC(c2nc3c(nnn3Cc3cccc(Cl)c3)c(=O)[nH]2)C1 (centres undefined)	?	-5.0%	6%	?	?	5%	-2%	?
CC(C)c1nnc(NC(=O)c2nc(SCc3ccc(F)cc3)ncc2Cl)s1	35%[activator]	-5.3%	29%[46.1 µM]	·	9%[46.1 µM]	·	·	-5%
O=C(Nc1nc2c(F)cccc2s1)c1ccc2c(c1)OCCO2	-66%	-3.7%	·	·	?	·	·	-6%
Cn1c(SCc2ccccc2F)nnc1-c1ccccn1	60%[activator]	·	·	-1%	·	-4%	17%	·
COc1ccc(NC(=O)c2cc(-c3ccccc3O)no2)cc1	0%	-12%	·	·	?	·	·	5%
CCOc1ccccc1CNC(=O)Cn1cc2c(n1)-c1c(oc(C(=O)N3CCCC3)c1C)CC2	?	-3.5%	·	·	?	·	·	3%
C/C(=N\N1C(=O)c2ccccc2NC1c1ccco1)c1ccccc1O (centres undefined)	11%	·	8.2µM*	-1%	?	-3%	2%	·
CCOC(=O)Cn1c(=O)oc2cc(S(=O)(=O)NC(C)(C)CC)ccc21	-7%	·	·	0%	·	4%	9%	·
CC(C)c1ccc(NC(=O)COC(=O)[C@H](CCC(N)=O)NC(=O)c2ccc(F)cc2)cc1	-1%	?	17%	21%	-1%	1%	10%	13%
CSCCC(NC(=O)c1ccccc1)C(=O)O (centres undefined)	-5%	·	-12%[46.1 µM]	-1%	3%[46.1 µM]	·	12%	·
CCc1ccccc1NC(=O)Cn1c(=O)n(CCc2ccccc2)c(=O)c2sc3ccccc3c21	-15%	0.9%	-6%[46.1 µM]	·	-13%[46.1 µM]	·	·	4%
Clc1ccc(OCC#CCN2CCCCCC2)cc1	0%	·	·	0%	·	1%	6%	·
CC(=O)N1CCN(S(=O)(=O)c2cccc(C(=O)Nc3ccc(OC(F)F)cc3)c2)CC1	-22%	·	-22%[46.1 µM]	0%	1%	-3%	11%	·
Cc1ccc(C(C2C(=O)CC(C)(C)CC2=O)C2C(=O)CC(C)(C)CC2=O)s1	?	1.4%	-6%[46.1 µM]	-5%	3%	-6%	2%	-1%
O=C(CN1C(=O)NC2(CCCCCC2)C1=O)NCc1ccco1	18%	6.6%	3%	-5%	-3%	7%	2%	4%
CC(Cc1ccccc1)NC(=O)CN1C(=O)c2ccccc2S1(=O)=O (centres undefined)	3%	·	-3%	-1%	?	-3%	1%	·
CCN(CC)c1ccc(/C=N/N2C(C)CCCC2C)c(O)c1 (centres undefined)	0%	·	?	-8%	-8%	-8%	-16%	·
Cc1ccc(-c2noc(-c3nnn(CC(=O)Nc4cc(C)cc(C)c4)c3N)n2)cc1	-8%	2.7%	·	·	5%[46.1 µM]	·	·	10%
Cc1ccc(C)c(Cn2c3ccccc3c3cnn(CC(=O)NC(C)CCc4ccccc4)c(=O)c32)c1 (centres undefined)	-13%	0.3%	10%[46.1 µM]	·	1%[46.1 µM]	·	·	5%
CCC(C(=O)NCc1ccco1)N(C(=O)CNS(=O)(=O)c1ccccc1)c1ccc(OC)cc1 (centres undefined)	17%	-1.2%	0%	-1%	-8%	-2%	1%	-1%
COc1ccc(CCNC(=S)NC(=O)c2ccccc2)cc1OC	-27%	-3.6%	-14%	-1%	0%	-7%	8%	?
CC(=O)C1C(=O)c2c(cccc2[N+](=O)[O-])C1=Nc1ccc(S(N)(=O)=O)cc1 (centres undefined)	-28%	·	-17%	0%	-2%	3%	1%	·
COCCNC(=O)c1ccc(C(=O)NCCOC)s1	22%	2.7%	24%	-1%	-1%	12%	-3%	4%
Cc1ccc(SCC(=O)NNC(=O)c2cncc(Br)c2)cc1	-3%	·	?	-18%	-4%	·	-2%	·
Cc1cc(Oc2ncccc2[N+](=O)[O-])c2cc(Cl)ccc2n1	-22%	·	?	1%	-6%[46.1 µM]	2%	-1%	·
CCOC(=O)c1c(C)[nH]c(C)c1S(=O)(=O)N(C)CC(=O)Nc1ccc(C)c(F)c1	9%	0.2%	·	·	-14%[46.1 µM]	·	·	0%
COCCNCC(=O)Nc1ccccc1Sc1ccccc1	-27%	1.0%	-10%	-6%	-14%	3%	3%	-7%
Cc1cc(C)cc(NC(=S)/C(=C(\[O-])c2ccc(Cl)cc2Cl)[n+]2ccc(C(C)(C)C)cc2)c1	-19%	·	·	-1%	·	-32%	-2%	·
COc1cc(OC)c(C2=NOC(C(=O)Nc3cc(C)nn3-c3ccccc3)C2)cc1Cl (centres undefined)	-17%	-1.8%	?	-2%	2%	-12%	11%	20%
O=C(CC1(O)C(=O)Nc2ccccc21)c1ccc(-n2cnnn2)cc1 (centres undefined)	8%	·	?	10%	-5%[46.1 µM]	·	4%	·
O=C1c2ccccc2C(Nc2ccc3c(c2)OCO3)N1Cc1ccc2c(c1)OCO2 (centres undefined)	8%	-3.9%	4%&4%	-27%	6%	-43%	0%	25µM*
COCC(CN1CCN(C2=NS(=O)(=O)c3ccccc32)CC1)OC(=O)c1ccc(OC)cc1 (centres undefined)	-3%	·	-10%	2%	5%	-38%	4%	·
CSc1ncccc1C(=O)NCC(c1ccco1)N1CCCCC1 (centres undefined)	-9%	·	?	0%	2%	·	-6%	·
